# Assay outcomes deposited in PubChem BioAssay by National Center for Advancing Translational Sciences (NCATS).
# gsp ag: agonists of gsp mutant (McCune-Albright syndrome); gsp mutant cells, cAMP HTRF, 30 min; control for the full effect not named in the record; Potency, µM (doses to about 76.9 µM), for inactives: at the highest dose activation (cAMP increase), hits mostly activators; 0.13% of 340,000 active; AID 624287; active = well fitted activation curve with a large enough effect; inconclusive = small, poorly fitted or top-dose-only effect, or another doubt; inactive = no such curve, though single readings can be large or run the other way; cell line not stated here;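 also: phosphodiesterase inhibitor Ro 20-1724 added with compounds to block cAMP breakdown; potency is read from the fitted curve at half-maximal effect; nearly all actives have a fitted effect of over 60% in size; about a fifth of the inactives were tested at one dose only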
#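 Cells stably selected in G418 were plated at 2000/well, grown 16-24 hr, then given compounds in DMSO with the PDE inhibitor […] (300 uM solution added) for 30 min at 37C; cAMP was read by HTRF.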
# CtBP-E1A inh: CtBP/E1A binding inhibition | AlphaScreen GST-E1A/His-CtBP binding, 1536-well; hits give low values; control for the full effect not named in the record | activity change, % (test concentration not listed) | 0.49% of 340,000 active | AID 651724; in the data active means activity change below about -65%; inconclusive means about -30% to -65%; inactive means above about -30%; also: % is scaled to controls: 0 for no effect and ±100 for the full control effect; compound concentration not given in the record
#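 Protein mix (5X: 125 nM each GST-E1A, His-CtBP) was incubated with pinned compound 2 h at 37 deg C in dark, in 50 mM Tris pH 8.0 buffer with 300 mM NaCl. Glutathione donor and nickel acceptor beads followed; AlphaScreen signal read after 1 h.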
# gsp antag: antagonizes gsp, the McCune-Albright syndrome mutation. gsp-mutant cells, cAMP HTRF, 30 min; control for the full effect not named in the record. Potency, µM (highest dose often 76.9 µM), for inactives: top-dose activity change, negative = inhibition, actives largely listed as inhibitors. 0.4% of 340,000 active. AID 624288; active = falling curve of any shape with a large fitted effect; inconclusive = falling curve, mostly with a smaller effect; inactive = flat or rising curve; cell line not stated here;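 also: intracellular cAMP measured with PDE inhibitor Ro 20-1724 present during compound exposure; potency is read from the fitted curve at half-maximal effect; % is scaled to controls: 0 for no effect and ±100 for the full control effect; nearly all actives have a fitted effect of over 65% in size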
#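 Cells in G418 medium, seeded 16-24 h, 37C; buffer exchange to DPBS + 1 mM CaCl2, 0.5 mM MgCl2, 0.05% BSA; cpds in DMSO + […] (300 uM stock), 30 min 37C; HTRF cAMP detection.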
# D2 ag: human D2 receptor agonism in beta-arrestin assay | P14416 | DiscoveRx PathHunter D2 beta-arrestin, luminescence, 90 min; 100% = 57 uM dopamine signal | activation, % (no concentration beside the values) | 0.084% of 360,000 active | AID 624465; in the data active = activation above about 40%; inconclusive = about 15% to 40%; inactive = below about 15%; also: compound concentration not given in the record; the text of the record calls up to 30% inactive
# Target sequence (P14416 whole entry, looked up): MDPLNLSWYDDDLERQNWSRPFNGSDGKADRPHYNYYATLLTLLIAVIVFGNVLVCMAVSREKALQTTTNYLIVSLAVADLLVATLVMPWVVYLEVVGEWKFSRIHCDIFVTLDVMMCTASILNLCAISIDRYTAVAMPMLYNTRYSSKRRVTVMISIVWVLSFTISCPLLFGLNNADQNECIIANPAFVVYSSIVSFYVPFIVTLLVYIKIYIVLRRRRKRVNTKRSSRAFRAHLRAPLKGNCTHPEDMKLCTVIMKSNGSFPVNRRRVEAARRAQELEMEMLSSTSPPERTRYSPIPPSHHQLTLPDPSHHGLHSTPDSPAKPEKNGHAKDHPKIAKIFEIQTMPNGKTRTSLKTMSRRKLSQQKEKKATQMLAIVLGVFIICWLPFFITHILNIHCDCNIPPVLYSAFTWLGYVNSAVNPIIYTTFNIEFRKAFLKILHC
#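 DiscoveRx PathHunter D2 beta-arrestin cells (2,100/well) attached overnight, then compound-stimulated 90 min at 37 C in HBSS/10 mM HEPES/0.1% Tween-20 buffer; beta-galactosidase complementation read by luminescence after 1 h at ambient temperature. Dopamine 57 uM final (EC100) as control.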
# D2 PAM: human D2 receptor positive allosteric modulation; AID 624464; DiscoveRx D2 beta-arrestin cells, luminescence, 90 min; 100% = 57 uM dopamine signal; potentiation, % (test concentration not listed); 0.23% of 360,000 active; active = potentiation of 50% or more; inconclusive = 30% to 50%; inactive = 30% or less;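 also: compound concentration not given in the record; tested on top of an EC20 dose of dopamine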
#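 PathHunter D2 cells, attached overnight at 37 deg C, received compound in DMSO plus dopamine at EC20 (50 nM final) for 90 min at 37 deg C. Beta-arrestin recruitment was read as luminescence after 1 h with detection reagent at ambient temperature.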
# Six1-Eya2 blk: Six1/Eya2 interaction inhibition; 0.56% of 360,000 active; AID 651725; AlphaScreen GST-Six1/His-Eya2 binding, biochemical; hits give low values; control for the full effect not named in the record; activity change, % (test concentration not listed); Q15475+O00167; in the data active = activity change below about -65%; inconclusive = about -30% to -65%; inactive = above about -30%; also: % is scaled to controls: 0 for no effect and ±100 for the full control effect; compound concentration not given in the record
#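 AlphaScreen with GST-Six1 and His-Eya2 (5X mix: 250 nM and 500 nM), glutathione donor and nickel acceptor beads; buffer 50 mM Tris pH 8.0, 300 mM NaCl, 1 mM TCEP; 1 h at 37 C in the dark.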
# The depositor's hits bear a star; ? = inconclusive; . = not tested or not shown; [ ] = another dose, or the depositor's remark.
Structure	gsp ag	CtBP-E1A inh	gsp antag	D2 ag	D2 PAM	Six1-Eya2 blk
CS(=O)(=O)N1CCN(c2ccccc2NC(=O)c2ccc(-c3ccc(Br)cc3)o2)CC1	17%	-6	-11%	0.1	-7	1
COC(=O)c1ccc(Cn2cc(Cl)cn2)o1	9%[15.4 µM]	-8	5%	-2.5	-9	7
COc1ccc(C(=O)NCC(c2cccs2)N2CCc3ccccc32)cc1OC (stereo not given)	10%[15.4 µM]	-18	-20%	3.6	-2	-13
Cc1nn(-c2ccccc2)c(Cl)c1C(=O)NC1CCCCC1	-9%[15.4 µM]	6	-9%	5.6	-7	2
CCOC(=O)c1c(C)c(C(=O)N2CCN(c3cccc(Cl)c3)CC2)c(C)n1C	-23%	-13	-10%	0.7	-9	-22
C[C@@H]1CN([C@@H](C)CO)C(=O)c2cc(Br)cnc2O[C@@H]1CN(C)S(C)(=O)=O	?	3	.	-3.4	.	0
COc1cc(C)ccc1OCCCCOc1ccccc1C(C)=O	3%	8	?	2.9	-5	16
Cc1ccc(OCCNCC(O)COc2ccccc2)cc1 (stereo not given)	-10%	-10	20%	0.5	-14	-16
COc1ccc(Cl)cc1N(CC(=O)NC1CC2CCC1C2)S(=O)(=O)c1ccccc1 (stereo not given)	10%	-7	?	-3.6	-8	3
CCN1CCN(S(=O)(=O)c2cc3c(cc2Cl)NC(=O)CO3)CC1	-1%	9	3%	-0.4	-2	-3
CCOc1ccc2c(c1)C(c1ccccc1)=NNC(c1ccccc1)=N2	-48%	-15	-16%	-0.2	-25	-25
Cc1cc(N/N=C/c2cccc(Br)c2)nc2ccccc12	3%	2	6%	-3.9	-25	14
Nc1ccc2nn(-c3cc([N+](=O)[O-])ccc3O)nc2c1	9%	.	-11%	0.8	-15	-5
O=C(CN1C(=O)NC(c2ccccc2)(c2ccccc2)C1=O)N1CCN(c2ccc(F)cc2)CC1	-5%	.	-5%	0.0	-5	-19
COc1ccc([N+](=O)[O-])cc1NC(=S)Nc1ccccc1	-8%	3	3%	-2.2	-39	0
O=C(NC1CCS(=O)(=O)C1)c1ccccc1C(=O)c1ccccc1 (stereo not given)	-4%	6	-7%	-1.3	0	3
COc1ccc(CCNC(=O)c2c(O)c3ccccc3[nH]c2=O)cc1OC	-8%[15.4 µM]	14	11%	-0.1	-2	0
O=C(NCCCn1ccnc1)/C(=C/c1cccnc1)NC(=O)c1ccco1	-4%	.	7%	-5.9	-13	-2
Cn1c(N2CCN(c3ccccn3)CC2)nc2c1c(=O)n(Cc1ccc(Cl)cc1)c(=O)n2C	-31%[inhibitor]	0	2%	5.3	-7	-5
COC(=O)c1cccc(/C=N/NC(N)=S)c1O	-20%	.	9%	0.8	-13	-66*
CCN(Cc1ccccc1)S(=O)(=O)c1ccc2c(c1)NC(=O)CS2	?	.	2%	1.0	-2	10
O=C(CCc1nnc(CCc2ccccc2)o1)N1CCCCC1CCn1cccn1 (stereo not given)	-2%	.	-12%	-6.1	-8	0
Cc1c(CC(=O)O)c(=O)oc2cc(OCc3ccc(F)cc3F)ccc12	-5%[15.4 µM]	1	-9%	1.1	1	4
CCOCc1nnc(NC(=O)CSc2ccc(C)cc2)s1	-1%	6	10%	-1.4	5	10
Cc1ccc(C(=O)Nc2nncs2)cc1S(=O)(=O)N1CCOCC1	-30%	-1	-2%	-2.1	-2	-5
Cc1ccc(N2CC(C(=O)Nc3nc4ccc(S(C)(=O)=O)cc4s3)CC2=O)cc1C (stereo not given)	25%	-5	-13%	-3.3	-9	-9
CCOc1cc(C(=S)N2CCOCC2)cc(Br)c1OS(=O)(=O)c1ccccc1	-16%	-24	-11%	-2.2	-13	-24
O=C(NNC(=O)C1CC1)Nc1ccc(Cl)cc1	?	-19	?	-1.4	-18	-1
CNc1nc(N)c([N+](=O)[O-])c(Nc2ccccc2OC)n1	-10%[15.4 µM]	-17	15%	-1.1	-9	?
CC1=C(C(=O)O)CC(S(=O)(=O)O)C1(C)C (stereo not given)	47%	9	12%	-0.9	-1	-4
CCCCCN(C(=O)CCC(=O)OCC(=O)N(C)c1ccccc1)c1c(N)n(CCCC)c(=O)[nH]c1=O	3%	9	12%	-0.5	9	0
O=C(NC(=S)N1CCN(c2ccccn2)CC1)c1ccccc1	3%[15.4 µM]	-5	9%	7.4	8	15
CC(Nc1nc(-c2cccnc2)nc2ccccc12)c1ccccc1 (stereo not given)	-48%[inhibitor]	-6	.	-0.4	-14	-19
O=C1CCCN1CCC1CCN(C(=O)Nc2ccccc2)CC1	11%	3	5%	0.1	-8	0
COCCNc1ncnc2c1ncn2[C@H]1CN(Cc2ccc(F)cc2)C[C@@H](CO)O1	.	2	.	4.2	3	0
CC1(C)CC(=O)C(C=NC2CC(C)(C)NC(C)(C)C2)=C(O)C1	2%	4	10%	-1.8	-4	5
Cc1ccc(S(=O)(=O)Nc2ccc(C(=O)NCCCn3ccnc3)cc2)cc1[N+](=O)[O-]	-4%	2	0%	2.4	-1	6
COc1cccc(NC(=S)N2CCN(c3ccccn3)CC2)c1	14%[15.4 µM]	-5	15%	?	4	-3
c1ccc(N2CCN(c3ccccc3)C2c2cccs2)cc1	-13%	-1	-2%	-0.2	9	-13
FC(F)Sc1nnc(-c2cccs2)n1-c1ccccc1	10%	3	-12%	3.9	5	2
O=C(/C=C/c1ccc2c(c1)OCO2)N1CCN(c2ccccc2F)CC1	?	2	-6%	-0.6	-15	5
CCN(c1ccccc1)S(=O)(=O)c1cc(NC(=O)CSc2n[nH]c(=O)[nH]c2=O)ccc1Cl	4%	-11	-2%	-4.2	-10	0
CC(C)C1Oc2ccccc2N(CC(=O)NCCCN2C(C)CCCC2C)C1=O (stereo not given)	35%	6	-8%	-3.2	-5	3
FC(F)(F)c1cc(CCN2C(=S)NC[C@@H]2c2ccccc2)cc(C(F)(F)F)c1	.	-5	8%	-1.2	-2	6
C[C@H](CO)N1C[C@H](C)[C@H](CN(C)S(=O)(=O)c2ccc(Oc3ccccc3)nc2)OCc2cnnn2CCCC1=O	-5%	3	.	-1.0	1	1
COC(=O)c1ccccc1NC(=O)[C@@H]1CCC(=O)N1C1OC(=O)c2c1ccc(OC)c2OC (stereo not given in full)	.	8	0%	-1.8	-3	1
Nc1nc(SCC(=O)c2cccc([N+](=O)[O-])c2)n[nH]1	-19%	.	-1%	-5.6	-7	15
O=C(NCCN1CCCCCC1)C1CCC(CNS(=O)(=O)c2cccc3cccnc23)CC1 (stereo not given)	-39%[inhibitor]	-2	2%	-0.3	-8	1
CC(C)(C)CC(=O)Nc1cccc2c1CCCC2	-22%	7	3%	-5.5	-24	0
CSc1cccc(NC(=S)N2CCC(c3ccccc3)C2)c1 (stereo not given)	6%	-10	-17%	-1.3	-7	-6
CCOC(=O)C1=C(C)N=c2s/c(=C3\C(=O)Nc4ccccc43)c(=O)n2C1c1ccc2c(c1)OCO2 (stereo not given)	5%	-2	6%	-2.9	-7	-14
CCc1cc(C(=O)N/N=C/c2c(C)[nH]c3ccccc23)cs1	-3%	-18	-16%	-1.1	-34	-24
Cc1ccc(OCC(=O)NNC(=O)CCc2ccccc2)c(Br)c1	0%[15.4 µM]	0	-7%	-11	-9	-21
CC(C)(C)OC(=O)C[C@@H]1C/C=C\C[C@@H](CC(=O)NCCO)C(=O)N[C@H](Cc2c[nH]c3ccccc23)COC1=O	-23%	6	2%	-8.7	1	5
CN(C(=O)c1ccc(Br)cc1)C1CCS(=O)(=O)C1 (stereo not given)	20%[15.4 µM]	7	5%	-0.9	-5	5
COc1ccc(C(=O)N2CCN(Cc3nc(CC4CC4)no3)CC2)cc1	5%	13	6%	-5.3	-10	4
C[C@@H]1CC=C[C@H]2[C@H]1C(=O)N(Cc1ccccc1)[C@H]2c1ccc(/C=C/c2ccccc2)cc1F	.	-12	-4%	-3.7	-5	-5
c1cc2c3c(cccc3c1)NN=N2	28%	?	-14%	6.1	3	-25
COc1cccc(NC(=O)CN(c2ccc([N+](=O)[O-])cc2)S(=O)(=O)c2ccccc2)c1	-36%[inhibitor]	4	0%	0.1	-5	0
CNC(=O)/C(C#N)=C/c1c(N2CCN(c3ccc(OC)cc3)CC2)nc2c(C)cccn2c1=O	9%[15.4 µM]	-4	?	1.7	0	?

# Of the compounds above, 4 contain a thiophene ring, fused or not:
Structure	gsp ag	CtBP-E1A inh	gsp antag	D2 ag	D2 PAM	Six1-Eya2 blk
COc1ccc(C(=O)NCC(c2cccs2)N2CCc3ccccc32)cc1OC (stereo not given)	10%[15.4 µM]	-18	-20%	3.6	-2	-13
c1ccc(N2CCN(c3ccccc3)C2c2cccs2)cc1	-13%	-1	-2%	-0.2	9	-13
FC(F)Sc1nnc(-c2cccs2)n1-c1ccccc1	10%	3	-12%	3.9	5	2
CCc1cc(C(=O)N/N=C/c2c(C)[nH]c3ccccc23)cs1	-3%	-18	-16%	-1.1	-34	-24

# Following part:
Structure	gsp ag	CtBP-E1A inh	gsp antag	D2 ag	D2 PAM	Six1-Eya2 blk
COc1cccc(NC(=S)NNC(=O)Cn2nc(C(F)(F)F)cc2C)c1	0%	4	1%	-7.0	-14	4
CC(C)(C)Cc1c(-c2ccc(C#N)cc2)nc2ccc(Cl)cn12	?	0	.	-15	-3	5
COc1ccccc1C(=O)N/N=C(\C)c1ccc(NC(=O)Cc2ccccc2)cc1	?	-2	-6%	-4.5	-7	-2
COCCCN(C(=O)Cc1coc2cc(C)c(C)cc12)c1c(N)n(Cc2ccccc2)c(=O)[nH]c1=O	-10%[15.4 µM]	4	-3%	-1.3	-2	9
O=C(Cc1ccc(NC(=O)C2CCCN(C(=O)c3ccccc3)C2)cc1)Nc1ccc(C(=O)N2CCOCC2)cc1 (stereo not given)	.	8	8%	-2.0	2	-16
CN1/C(=C\C=C2/SC(=S)NC2=O)C(C)(C)c2ccccc21	-3%	.	?	-11	-14	-2
CN(C)S(=O)(=O)c1cccc(COC(=O)Cc2c(F)cccc2Cl)c1	-21%	8	-23%	3.5	-5	14
COc1ccccc1CCC(=O)NC1CCCN(c2ccc(C(F)(F)F)cn2)C1 (stereo not given)	32%	5	-8%	-1.2	-7	2
O=C(Nc1nc2ccc(F)cc2s1)C1=NN(c2ccccc2)C(=O)CC1	-50%[inhibitor]	6	?	-2.1	-6	0
CCOC(=O)C1(Cc2cccc(OC)c2)CCCN(C(=O)c2ccc(OC)o2)C1 (stereo not given)	2%[15.4 µM]	-4	3%	2.6	-18	-5
